SARS PLpro yeast = blocks SARS-CoV papain-like protease in a yeast assay. actives 0.19% (n = 330,000). Potency, µM (titrated, usually from 32.9 µM), for inactives: at the top dose activity, positive = growth rescue. S. cerevisiae expressing SARS-CoV PLpro, growth rescue; control for the full effect not named in the record; active means well fitted rising curve with a large enough effect; inconclusive means small, poorly fitted or top-dose-only effect; inactive means no such curve, though single readings can be large or run the other way; note: 0% is about no effect; nearly all actives have a fitted effect of over 55% in size; growth read by luminescence after 48 h
RE007 growth inh = less growth of the S. pombe RE007 Vpr strain; S. pombe RE007 Vpr strain, BacTiter-Glo ATP luminescence, 24 h; control for the full effect not named in the record; Potency, µM (doses to about 92.2 µM), for the others: at the highest dose activity change, negative = less growth; actives 0.21% (n = 360,000); active = well fitted falling curve with a large enough effect; inconclusive = small, poorly fitted or top-dose-only effect; inactive = no such curve, though single readings can be large or run the other way;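 note: % is set by controls: 0 for no effect and ±100 for the full control effect; nearly all actives have a fitted effect of over 50% in size; the assay follows cell death caused by Vpr and the record does not say whether a fall means rescue or toxicity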
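Fission yeast RE007 carrying one integrated HIV-1 vpr copy, seeded at OD 0.01 in PMG+AL medium with 23 nL pinned compound. Grown 24 h at 30 degrees; viability read by BacTiter-Glo luminescence after 5 min.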
2A StopGo = FMDV 2A StopGo reporter, luciferase signal; human cells with a luciferase reporter of 2A StopGo recoding; control for the full effect not named in the record; Potency, µM (highest dose often 57.9 µM), for the others: at the top dose signal change, negative = less light; actives 1.2% (n = 410,000); active = well fitted falling curve with a large enough effect; inconclusive = small, poorly fitted or top-dose-only effect; inactive = no such curve, though single readings can be large or run the other way; tested in HEK293T cells; note: % is set by controls: 0 for no effect and ±100 for the full control effect; nearly all actives have a fitted effect of over 45% in size; luciferase light after 4 h
Active calls of the source: *; [ ] = another dose, or the depositor's remark. Potency is the fitted concentration of half-maximal effect. Only part of the results is shown. The share of hits here may be higher or lower than overall.

What do the screens show for `COc1cccc(NC(=O)COC(=O)/C=C/c2c(C)nn(-c3ccccc3)c2C)c1`?
SARS PLpro yeast: 1%; RE007 growth inh: -7%; 2A StopGo: -15%

Results for COc1ccccc1OCC(=O)Nc1ccc(N2CCCCC2)cc1 ?
SARS PLpro yeast: -1%; RE007 growth inh: -2%; 2A StopGo: 17%

Results for CCOc1ccc(C(c2c(NC(=O)c3ccco3)sc(C)c2C)N2CCOCC2)cc1 (stereo not drawn) ?
SARS PLpro yeast: -9%; RE007 growth inh: 6%; 2A StopGo: inconclusive

Results for CC(C)=CCC/C(C)=C/CC/C(C)=C/COc1ccc2ccc(=O)oc2c1 ?
SARS PLpro yeast: 3%; RE007 growth inh: 0%; 2A StopGo: inconclusive

Results for Cc1ccc(C)c(SCC(=O)Nc2cccnc2Cl)c1 ?
SARS PLpro yeast: 0%; RE007 growth inh: 10%; 2A StopGo: -11%

What do the screens show for `CCOc1ccc(NC(=O)COC(=O)CCC(=O)c2cccs2)cc1`?
SARS PLpro yeast: -11%; RE007 growth inh: -2%; 2A StopGo: -9%

What do the screens show for `CNC[C@@H]1Oc2c(NC(=O)Nc3ccccc3)cccc2C(=O)N([C@@H](C)CO)C[C@H]1C`?
SARS PLpro yeast: 5%; RE007 growth inh: -4%; 2A StopGo: -11%

How did O=C1CN(C(=O)CSc2nc3ccccc3c(=O)n2CC2CCCO2)c2ccccc2N1 (stereo not drawn) do in these assays?
SARS PLpro yeast: 1%; RE007 growth inh: 1%; 2A StopGo: inconclusive

How did CCOC(=O)[C@@H]1[C@H]2COc3ccc(Br)cc3[C@@H]2N2C(=O)N(c3ccc(F)cc3)C(=O)[C@@]12C do in these assays?
SARS PLpro yeast: 8%; RE007 growth inh: 2%; 2A StopGo: -5%

How did CC(C)(C)CC(C)(C)NC(=S)N1CCN(Cc2ccc3c(c2)OCO3)CC1 do in these assays?
SARS PLpro yeast: -6%; RE007 growth inh: 9%; 2A StopGo: -8%

Results for Cc1ccc(N(CC(=O)NCc2ccc(F)cc2)C(=O)c2csnn2)cc1C ?
SARS PLpro yeast: -1%; RE007 growth inh: -13%; 2A StopGo: 2%

What do the screens show for `N#Cc1ccc(OCC(=O)N(C2CCCCC2)C2CCS(=O)(=O)C2)cc1` (stereo not drawn)?
SARS PLpro yeast: -6%; RE007 growth inh: 3%; 2A StopGo: -8%

Results for C[C@@H]1O[C@@H](O[C@H]2[C@H](O)[C@@H](O)[C@H](Oc3c(-c4ccc(O)c(O)c4)oc4cc(O)cc(O)c4c3=O)O[C@@H]2CO)[C@H](O)[C@H](O)[C@H]1O ?
SARS PLpro yeast: 8%; RE007 growth inh: -4%; 2A StopGo: -16%

How did COCCN(C(=O)CC1CCCCC1)c1c(N)n(CC(C)C)c(=O)[nH]c1=O do in these assays?
SARS PLpro yeast: 1%; RE007 growth inh: 2%; 2A StopGo: -28%

How did CN(C(=O)COC(=O)c1n[nH]c(=O)c2ccccc12)c1ccccc1 do in these assays?
SARS PLpro yeast: -6%; RE007 growth inh: 11%; 2A StopGo: inconclusive

Results for CCc1ccccc1NC(=O)c1cc(-c2ccc(F)cc2)on1 ?
SARS PLpro yeast: 0%; RE007 growth inh: 26%; 2A StopGo: 20%

What do the screens show for `O=C(COC(=O)c1ccccc1O)NC(=O)c1ccc(OC(F)F)cc1`?
SARS PLpro yeast: -39%; RE007 growth inh: 6%; 2A StopGo: -23%

Results for Cc1ccc(NC(=S)NC(=O)C2CCCC2)c(Br)c1 ?
SARS PLpro yeast: -18%; RE007 growth inh: inconclusive; 2A StopGo: 42%[activator]

Results for COc1ccc(S(N)(=O)=O)cc1C(=O)OCC(=O)N1CCCC(C)C1 (stereo not drawn) ?
SARS PLpro yeast: 0%; RE007 growth inh: -17%; 2A StopGo: -9%

How did CCOC(=O)N1CCN(CC(O)c2ccccc2)CC1 (stereo not drawn) do in these assays?
SARS PLpro yeast: 0%; RE007 growth inh: -7%; 2A StopGo: 51%[activator]

Results for COc1ccc(CCNC(=O)COC(=O)CNS(=O)(=O)c2ccc(SC)c([N+](=O)[O-])c2)cc1 ?
SARS PLpro yeast: 0%; RE007 growth inh: 4%; 2A StopGo: 2%

What do the screens show for `COc1ccc(NC(=O)CC2SC(N3CCCC3)=NC2=O)cc1Cl` (stereo not drawn)?
SARS PLpro yeast: 1%; RE007 growth inh: 0%; 2A StopGo: -11%

What do the screens show for `O=C(CNc1ccc(F)cc1Cl)Nc1cccc(S(=O)(=O)N2CCCCC2)c1`?
SARS PLpro yeast: 5%; RE007 growth inh: -14%; 2A StopGo: 1%

What do the screens show for `CCC(CC)CN1CCN=C1Nc1ccccc1`?
SARS PLpro yeast: 0%; RE007 growth inh: -8%; 2A StopGo: -12%

How did CN(CCc1nnc(N)s1)[N+](=O)[O-] do in these assays?
SARS PLpro yeast: 0%; RE007 growth inh: 4%; 2A StopGo: 0%

What do the screens show for `CCN1CCN(c2ccc(NC(=O)COc3ccc(Cl)cc3C)cc2)CC1`?
SARS PLpro yeast: 1%; RE007 growth inh: 2%; 2A StopGo: inconclusive

What do the screens show for `CCOc1cc(-c2sc(Nc3cc(C)ccc3OC)n[n+]2-c2ccccc2)ccc1OC`?
SARS PLpro yeast: -2%; RE007 growth inh: -4%; 2A StopGo: -19%

Results for C#CCOCCOCCOCCNc1nc(N2CCN(C(=O)[C@H](CO)n3cc([C@@H](N)C(C)C)nn3)CC2)nc(N2CCN(C(=O)[C@H](CCCCN)n3cc([C@@H](N)[C@H](C)CC)nn3)CC2)n1 ?
SARS PLpro yeast: 2%; RE007 growth inh: -4%; 2A StopGo: -22%

How did CC(C)(C)OC(=O)NCCCCCNC(=O)c1[nH]cnc1C(=O)Nc1ccccc1 do in these assays?
SARS PLpro yeast: 4%; RE007 growth inh: 2%; 2A StopGo: -29%

What do the screens show for `Cc1ccc(-c2nc3ncccn3c2Nc2ccccc2C)o1`?
SARS PLpro yeast: 0%; RE007 growth inh: 1%; 2A StopGo: -18%

How did COc1ccc(C(C)=O)c(Oc2ccc(S(=O)(=O)N3CCOCC3)cn2)c1 do in these assays?
SARS PLpro yeast: -1%; RE007 growth inh: 5%; 2A StopGo: 0%

Results for COc1ccc(-c2sc3cc4c(cc3c2C#Cc2cncn2C)OCO4)cc1 ?
SARS PLpro yeast: 3%; RE007 growth inh: 4%; 2A StopGo: 3%

Results for O=S(=O)(NCC(c1ccco1)N1CCCCC1)c1cccc(C(F)(F)F)c1 (stereo not drawn) ?
SARS PLpro yeast: 1%; RE007 growth inh: -3%; 2A StopGo: -24%

How did COc1cccc([C@@H]2CC=C(C(=O)O)[C@H](c3ccccc3F)N2S(=O)(=O)c2ccc(C)cc2)c1 do in these assays?
SARS PLpro yeast: -12%; RE007 growth inh: -6%; 2A StopGo: 10%

What do the screens show for `COc1c(OC(C)=O)c(=O)n2c3ccccc3c3ccnc1c32`?
SARS PLpro yeast: -2%; RE007 growth inh: -3%; 2A StopGo: -21%

How did Cc1ccc(C)c(NC(=O)CN(C)C(=O)c2cccc(Oc3ccccc3)c2)c1 do in these assays?
SARS PLpro yeast: 5%; RE007 growth inh: -1%; 2A StopGo: inconclusive

Results for COc1ccc(N2CCN(C(=O)c3cc(C4CC4)nn3-c3ccccc3)CC2)cc1 ?
SARS PLpro yeast: 2%; RE007 growth inh: -7%; 2A StopGo: 9%

Results for CS(=O)(=O)c1ccc(Cl)c(NC(=O)CSc2n[nH]c(-c3cccs3)n2)c1 ?
SARS PLpro yeast: -2%; RE007 growth inh: -5%; 2A StopGo: -5%

How did CC1CCCC(NC(=O)CSC2=Nc3ccccc3C3CC=NN23)C1C (stereo not drawn) do in these assays?
SARS PLpro yeast: 3%; RE007 growth inh: 11%; 2A StopGo: -24%

How did CCOc1ccccc1NC(=O)c1nc(-c2ccccc2)oc1C do in these assays?
SARS PLpro yeast: -1%; RE007 growth inh: 20%; 2A StopGo: inconclusive

Brought forward from above: two compounds, then new ones.
How did CC1CCCC(NC(=O)CSC2=Nc3ccccc3C3CC=NN23)C1C (stereo not drawn) do in these assays?
SARS PLpro yeast: 3%; RE007 growth inh: 11%; 2A StopGo: -24%

How did CCOc1ccccc1NC(=O)c1nc(-c2ccccc2)oc1C do in these assays?
SARS PLpro yeast: -1%; RE007 growth inh: 20%; 2A StopGo: inconclusive

Results for O=C(COC(=O)c1cc(S(=O)(=O)N2CCOCC2)ccc1Cl)NC1CC1 ?
SARS PLpro yeast: 2%; RE007 growth inh: -3%; 2A StopGo: -18%

What do the screens show for `CC(C)(C)C(=O)CSc1ccc(S(=O)(=O)N2CCN(Cc3ccccc3)CC2)cn1`?
SARS PLpro yeast: -2%; RE007 growth inh: -10%; 2A StopGo: -25%

Results for COc1ccc(C(=O)OCC(=O)NC(=O)NC(C)C)cc1OC ?
SARS PLpro yeast: 1%; RE007 growth inh: -7%; 2A StopGo: -23%

Results for COc1cccc(-c2ncc3ccccc3c2COC(=O)c2ccc(F)cc2)c1 ?
SARS PLpro yeast: 1%; RE007 growth inh: 0%; 2A StopGo: -20%

How did COC(=O)C1=C(c2ccc(OC)c(OC)c2)C[C@@H]2CC[C@H]1N2C(=O)NC1Cc2ccccc2C1 do in these assays?
SARS PLpro yeast: 1%; RE007 growth inh: -5%; 2A StopGo: 16%

Results for COc1ccc(C(=O)COC(=O)c2ccccc2O)c(OC)c1 ?
SARS PLpro yeast: -2%; RE007 growth inh: 1%; 2A StopGo: 40%[activator]

Results for CC(=O)OC1[C@H](Oc2c(O)c(C)c3c4c2[C@@H](C)CC[C@@H]4[C@@H](C)C[C@@H]3C=C(C)C)OC[C@@H](O)[C@@H]1O (stereo partly drawn) ?
SARS PLpro yeast: 2%; RE007 growth inh: 18%; 2A StopGo: -14%

Results for Cc1cc(C(=O)NNC(=O)CN2C(=O)NC3(CCCCC3)C2=O)c(C)o1 ?
SARS PLpro yeast: 9%; RE007 growth inh: -2%; 2A StopGo: -1%

Results for CC(OC(=O)CC1CC2CCC1C2)C(=O)Nc1ccc(N2CCOCC2)cc1 (stereo not drawn) ?
SARS PLpro yeast: 1%; RE007 growth inh: -12%; 2A StopGo: 4%

Results for CCN(C(=O)CSc1n[nH]c(N)n1)C1CCCCC1 ?
SARS PLpro yeast: 0%; RE007 growth inh: 11%; 2A StopGo: -7%

What do the screens show for `O=C(COC(=O)/C=C/c1ccc(Cl)cc1)NC1CC1`?
SARS PLpro yeast: -7%; RE007 growth inh: -7%; 2A StopGo: -11%

What do the screens show for `COc1ccc(C(=O)Nc2nnc(C)s2)cc1S(=O)(=O)N1CCOCC1`?
SARS PLpro yeast: -1%; RE007 growth inh: -2%; 2A StopGo: -14%

What do the screens show for `COC(=O)C1=C(c2ccc(F)cc2F)C[C@@H]2CC[C@H]1N2C(=O)NCc1ccc2c(c1)OCO2`?
SARS PLpro yeast: -1%; RE007 growth inh: -4%; 2A StopGo: 2%

What do the screens show for `CCOC(=O)C1=C(COC(=O)/C=C/c2ccc([N+](=O)[O-])cc2)NC(=O)NC1C` (stereo not drawn)?
SARS PLpro yeast: -5%; RE007 growth inh: 11%; 2A StopGo: inconclusive

What do the screens show for `CC(C)(C)NC(=O)NC(=O)CSc1ccc(S(=O)(=O)N2CCOCC2)cn1`?
SARS PLpro yeast: 7%; RE007 growth inh: 3%; 2A StopGo: -15%

Results for CC1CN(S(=O)(=O)c2cccc(C(=O)N(C)C3CCN(C)CC3)c2)CC(C)O1 (stereo not drawn) ?
SARS PLpro yeast: -3%; RE007 growth inh: -7%; 2A StopGo: -5%

What do the screens show for `COc1cccc(-c2sc3ccc(OC)cc3c2C#CCCO)c1`?
SARS PLpro yeast: 4%; RE007 growth inh: 6%; 2A StopGo: -7%

Results for CN(CC(=O)Nc1ccccc1C(F)(F)F)C(=O)c1ccc2c(=O)n3c(nc2c1)CCC3 ?
SARS PLpro yeast: 0%; RE007 growth inh: 6%; 2A StopGo: -26%

Results for O=S(=O)(c1cccc(-c2n[nH]c(=S)n2-c2ccc(OC(F)(F)F)cc2)c1)N1CCOCC1 ?
SARS PLpro yeast: -5%; RE007 growth inh: -1%; 2A StopGo: -10%

Results for CCN(CC)C(=O)c1ccc(NC(=O)Nc2ccccc2F)cc1 ?
SARS PLpro yeast: -27%; RE007 growth inh: 13µM*; 2A StopGo: -42%

What do the screens show for `COC(=O)c1c(-c2ccc(OC)cc2)sc2ccc(N3CCOCC3)cc12`?
SARS PLpro yeast: 0%; RE007 growth inh: -11%; 2A StopGo: 25%

What do the screens show for `O=C(Cc1csc(-c2ccccc2)n1)NCc1ccco1`?
SARS PLpro yeast: 0%; RE007 growth inh: -7%; 2A StopGo: 5%

Reprinted at random: 2 compounds from above.
Results for Cc1ccc(NC(=S)NC(=O)C2CCCC2)c(Br)c1 ?
SARS PLpro yeast: -18%; RE007 growth inh: inconclusive; 2A StopGo: 42%[activator]

What do the screens show for `O=C(Cc1csc(-c2ccccc2)n1)NCc1ccco1`?
SARS PLpro yeast: 0%; RE007 growth inh: -7%; 2A StopGo: 5%

Screening data from PubChem.
